Assay outcomes (PubChem BioAssay)
SARS PLP yeast – qHTS of Yeast-based Assay for SARS-CoV PLP | S. cerevisiae expressing SARS-CoV PLpro, growth rescue; control for the full effect not named in the record | Potency, µM (top dose mostly 32.9 µM), for inactives: top-dose activity, positive = growth rescue | hit rate 0.19% among 330,000; also: 0% is about no effect; nearly all actives have a fitted effect of over 55% in size; growth read by luminescence after 48 h
MARV entry inh – qHTS for inhibitors of binding or entry into cells for Marburg Virus. Marburg virus pseudotyped entry inhibition, cell reporter; control for the full effect not named in the record; about a third of the inactives were read at about 46 µM. Potency, µM (titrated, usually from 37.8 µM), for inactives: top-dose activity change, negative = inhibition, usual class: inhibitors. hit rate 1.8% among 300,000. AID 540276, 2011; active = well fitted inhibition curve with a large enough effect; inconclusive = small, poorly fitted or top-dose-only effect, or effect the other way; inactive = flat fitted curve, though single readings scatter; tested in HEK293 cells; about a fifth of its hits are not listed in these tables; also: % is scaled to controls: 0 for no effect and ±100 for the full control effect; luciferase read-out
NS1 function inh – qHTS Assay for Inhibitors of Influenza NS1 Protein Function | S. cerevisiae slowed by influenza A NS1, growth recovery by OD600 | Potency, µM (highest dose often 46.1 µM), without a hit: at the highest dose activity, positive = more growth | hit rate 0.4% among 270,000 | AID 2326, 2010; also: actives are rising curves; nearly all actives have a fitted effect of over 50% in size
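Read-out: OD600 growth recovery of NS1-expressing budding yeast. Cells grown overnight at 30C in -URA glucose medium, washed, resuspended and diluted 1:100 in 2% galactose assay medium, pH 6.0. Same strain lacking NS1 served as positive control.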
StopGo reporter – High Throughput Screening for Foot and Mouth Disease Virus Antivirals | human cells with a luciferase reporter of 2A StopGo recoding; control for the full effect not named in the record | Potency, µM (doses to about 57.9 µM), inactives show at the highest dose signal change, negative = less light | hit rate 1.2% among 410,000 | AID 1159524, 2015; active = well fitted falling curve with a large enough effect; inconclusive = small, poorly fitted or top-dose-only effect; inactive = no such curve, though single readings can be large or run the other way; tested in HEK293T cells; also: % is scaled to controls: 0 for no effect and ±100 for the full control effect; nearly all actives have a fitted effect of over 45% in size; luciferase light after 4 h
Cruzain inh noDet – qHTS Assay for Promiscuous and Specific Inhibitors of Cruzain (without detergent) | purified cruzain, Z-FR-AMC fluorescence, no detergent | Cruzipain (Trypanosoma cruzi), P25779 | AID 1476, 2009 | Potency, µM, for the others: max response, negative = inhibition, usual class: inhibitors | hit rate 2.3% among 200,000; active = well fitted curve in the direction sought with a large enough effect; inconclusive = small, poorly fitted or top-dose-only effect, or another doubt; inactive = no such curve, though single readings can be large; an effect the other way counts as inactive or inconclusive;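 also: plate controls were enzyme without inhibitor for no effect and buffer without enzyme for full effect; nearly all actives have a fitted effect of over 40% in size; top concentration of the series not given in the record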
Target sequence (P25779 123-467 limits assumed): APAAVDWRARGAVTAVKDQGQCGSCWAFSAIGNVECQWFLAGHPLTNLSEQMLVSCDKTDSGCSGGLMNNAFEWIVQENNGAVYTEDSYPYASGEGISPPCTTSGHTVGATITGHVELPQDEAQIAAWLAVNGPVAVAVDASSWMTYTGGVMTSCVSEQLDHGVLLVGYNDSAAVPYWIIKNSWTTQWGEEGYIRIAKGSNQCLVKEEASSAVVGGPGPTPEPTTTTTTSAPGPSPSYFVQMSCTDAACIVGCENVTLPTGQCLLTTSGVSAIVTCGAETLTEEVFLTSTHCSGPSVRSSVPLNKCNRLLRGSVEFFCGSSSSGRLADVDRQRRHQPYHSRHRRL
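Detergent-free condition (0.00005% Triton X-100) in acetate buffer pH 5.5 with DTT. 1.5 nM enzyme and compound were pre-mixed 15 min, then 2 uM Z-FR-AMC substrate added; reaction progress from fluorescence change between first and third reads (60 s).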
Cruzain Triton – qHTS Assay for Promiscuous and Specific Inhibitors of Cruzain (with detergent). Potency, µM, for the others: max response, negative = inhibition, actives largely listed as inhibitors. hit rate 0.43% among 200,000. purified cruzain, Z-FR-AMC fluorescence, 0.01% Triton. Cruzipain (Trypanosoma cruzi), P25779. AID 1478, 2009; active = well fitted curve in the direction sought with a large enough effect; inconclusive = small, poorly fitted or top-dose-only effect, or another doubt; inactive = no such curve, though single readings can be large; an effect the other way counts as inactive or inconclusive;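 also: plate controls were neutral wells for no effect and buffer without enzyme for full effect; nearly all actives have a fitted effect of over 40% in size; top concentration of the series not given in the record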
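Cysteine protease activity tested under reducing, mildly acidic conditions (100 mM sodium acetate pH 5.5, 5 mM DTT) plus 0.01% Triton X-100. Cruzain 1.5 nM; substrate Z-FR-AMC 2 uM; 15 min compound preincubation at room temperature.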
RE007 growth inh – qHTS Assay for Inhibitors of the HIV-1 protein Vpr; AID 651644, 2012; hit rate 0.21% among 360,000; Potency, µM (series often up to 92.2 µM), inactives show at the highest dose activity change, negative = less growth; S. pombe RE007 Vpr strain, BacTiter-Glo ATP luminescence, 24 h; control for the full effect not named in the record; active = well fitted falling curve with a large enough effect; inconclusive = small, poorly fitted or top-dose-only effect; inactive = no such curve, though single readings can be large or run the other way;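 also: % is scaled to controls: 0 for no effect and ±100 for the full control effect; nearly all actives have a fitted effect of over 50% in size; the assay follows cell death caused by Vpr and the record does not say whether a fall means rescue or toxicity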
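Fission yeast RE007 carrying one integrated HIV-1 vpr copy, seeded at OD 0.01 in PMG+AL medium with 23 nL pinned compound. Grown 24 h at 30 degrees; viability read by BacTiter-Glo luminescence after 5 min.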
LASV entry inh – qHTS for Inhibitors of binding or entry into cells for Lassa Virus. Potency, µM (top dose mostly 37.9 µM), for inactives: at the top dose activity change, negative = inhibition, actives largely listed as inhibitors. hit rate 1.2% among 300,000. AID 540256, 2011. Lassa virus pseudotype entry inhibition, cell reporter; control for the full effect not named in the record; active means well fitted inhibition curve with a large enough effect; inconclusive means small, poorly fitted or top-dose-only effect, or effect the other way; inactive means flat fitted curve, though single readings scatter; tested in HEK293 cells; also: % is scaled to controls: 0 for no effect and ±100 for the full control effect; nearly all actives have a fitted effect of over 50% in size; luciferase read-out
* = called active by the depositor; ? = inconclusive; nt = not tested or not shown; & = joins results of further samples; [ ] = dose if it differs, or a comment. Unless noted, calls follow the shape of the dose curve; as a rule, active means well fitted rising curve with a large enough effect; inconclusive means small, poorly fitted or top-dose-only effect; inactive means no such curve, though single readings can be large or run the other way. Potency is read from the fitted curve at half-maximal effect.

SMILES	SARS PLP yeast	MARV entry inh	NS1 function inh	StopGo reporter	Cruzain inh noDet	Cruzain Triton	RE007 growth inh	LASV entry inh
O=C(Nc1ccccc1Cl)c1cccc(NC(=O)C2CCCC2)c1	-6%	nt	-43%	40%[activator]	nt	nt	-2%	nt
Cc1ccc2[nH]cc(C(=O)CN3CCN(c4ccccn4)CC3)c2c1	3%	-18%[46.1 µM]	-7%	-13%	-18%	-4.3%	3%	-1%
COc1ccc(C2C(C#N)=C(C)NC3=C2C(=O)c2ccccc23)cc1 (stereo not drawn)	-2%	-23%	0%	-20%	17%	0.5%	-5%	?
NC(=O)CSc1nc2ccccc2c(=O)n1CCc1ccccc1	1%	32%[46.1 µM]	-6%	-6%	nt	nt	0%	12%[46.1 µM]
COc1ccc2nc(Sc3c([N+](=O)[O-])nc(C)n3Cc3ccccc3)[nH]c2c1	1%	?	1%	16µM*	-13%	5.4%	-1%	16µM*
CCOC(=O)C1CCCN(C2=C(NS(=O)(=O)c3ccc(Br)cc3)C(=O)c3ccccc3C2=O)C1 (stereo not drawn)	?	nt	15%	-10%	nt	nt	-8%	nt
COc1ccc(Nc2nc(C)cc(C)c2C#N)cc1OC	2%	nt	-8%	0%	-3%	-2.0%	-10%	nt
COc1ccccc1OCCN(C#N)c1nc(N(C)C)nc(N(C)C)n1	0%	-10%[46.1 µM]	nt	9%	nt	nt	0%	?
Cc1ccc(-n2nc(C)c(C3C(C#N)=C(N)OC4=C3C(=O)CCC4)c2Cl)cc1 (stereo not drawn)	0%	5%	-8%	nt	-9%	-2.6%	nt	nt
COCCN1Cc2cccc(C(=O)N3CCN(c4ccccc4)CC3)c2C1=O	7%	18%[46.1 µM]	1%	-3%	-3%	5.1%	12%	-6%
COc1ccc(Cl)cc1C(=O)Nn1cnc2ccccc2c1=O	0%	-4%	5%	nt	3%	2.0%	7%	2%
O=C(COc1cc2oc(=O)cc(-c3ccccc3)c2cc1Cl)NCCN1CCOCC1	-2%	nt	-2%	-3%	nt	nt	-3%	nt
CCc1ccc(OCC(=O)N2CCN(CCc3ccccn3)CC2)cc1	nt	-7%[46.1 µM]	nt	-6%	8%	-1.0%	nt	-12%[46.1 µM]
COc1ccc(S(=O)(=O)N2CCCC(C(=O)NC3CC3)C2)cc1Cl (stereo not drawn)	0%	0%	-4%	-5%	nt	nt	-2%	-3%
O=c1[nH]c(CCC2CCCC2)nc2ccccc12	9%	?	-15%	36%[activator]	-7%	-4.8%	5%	8%
COc1ccccc1CNC(=O)COC(=O)c1ccc(-n2cnnn2)cc1	3%	19%	nt	6%	nt	nt	-8%	2%
CCCn1c2ccccc2c2nnc(SCC(=O)OC)nc21	0%	6%	-15%	9%	7%	-2.1%	0%	-15%
O=C(OCC#CCSc1nnc(-c2ccc([N+](=O)[O-])cc2)o1)c1cccs1	6%	-19%	2%	-4%	8%	-2.2%	-9%	?
COc1ccccc1S(=O)(=O)Cc1ccc(C(=O)N2CCN(c3cccc(Cl)c3)CC2)o1	5%	-30%&-30%	24%	18µM*	?	-1.8%	10%	?
NC(=O)COC(=O)c1cccc(S(=O)(=O)N2CCN(c3ccccc3)CC2)c1	-3%	nt	9%	-9%	nt	nt	-4%	nt
CC(NC(=O)C1c2ccccc2Oc2ccccc21)C1CCCO1 (stereo not drawn)	1%	-13%[46.1 µM]	nt	-4%	nt	nt	-6%	-2%[46.1 µM]
CCOc1ccccc1NC(=O)C(Sc1nnnn1C)c1ccccc1 (stereo not drawn)	-1%	nt	-5%	4%	nt	nt	0%	nt
CN1CCN(C(=O)c2cc(Oc3c(F)c(F)c(F)c(F)c3F)cc(C(=O)N3CCN(C)CC3)c2)CC1	0%	-2%[46.1 µM]	nt	1%	nt	nt	1%	17%
Cc1c(O)c2c(=O)n(-c3ccccc3)c(-c3ccccc3)cc2oc1=O	4%	-42%	5%	-12%	?	-1.9%	3%	5%
CCOC(=O)C1=C(COc2ccccc2)NC(=O)NC1c1cccc([N+](=O)[O-])c1 (stereo not drawn)	-2%	nt	7%	-8%	nt	nt	4%	nt
O=C(CSc1ccccc1)Nc1cc(S(=O)(=O)N2CCOCC2)ccc1N1CCOCC1	-6%	3%	0%	-1%	nt	nt	-6%	-12%
Cc1c(Cl)cccc1NC(=S)N/N=C/c1ccccc1Cl	2%	-2%[46.1 µM]	7%	-9%	nt	nt	9%	-27%[46.1 µM]
CCOC(=O)Oc1ccc2oc(C)c(C(=O)OCCOC)c2c1	-30%	15%	-156%	0%	-7%	0.8%	-16%	?
Cc1ccc(Nc2nc(-c3c(C)n(C)n(-c4ccccc4)c3=O)c(C)s2)cc1	8%	?	26%	-23%	-9%	-3.4%	3%	-29%
CCOC(=O)/C(C#N)=C1/CCCCCN1C	3%	13%[46.1 µM]	?	6%	-5%	1.3%	18%	-1%
COc1ccc(-c2coc3cc(OC4OC(CO)C(O)C(O)C4O)cc(O)c3c2=O)cc1 (stereo not drawn)	0%	nt	nt	56%[activator]	10%	-2.0%	1%	nt
COc1ccccc1CNC(=O)c1ccc(CSc2nc3ccncc3n2Cc2ccccc2C)cc1	nt	?	nt	-6%	?	-1.8%	nt	nt
CCOC(=O)c1cnc2c(-c3ccc(Cl)cc3)cnn2c1C	-1%	-2%[46.1 µM]	3%	33%[activator]	nt	nt	-11%	14%
COc1ccc(NC(=O)C2=C(C)C(=O)OC23CCC(C)CC3)c(OC)c1 (stereo not drawn)	5%	-1%	?	-13%	-5%	-4.6%	4%	nt
CCOCCc1nnc(NC(=O)C(=O)c2cc(C)n(-c3cccc(Cl)c3)c2C)s1	nt	1%[46.1 µM]	nt	-20%	1%	-6.2%	nt	-5%[46.1 µM]
CNC(=O)c1cc2c(=O)n3cc(C)ccc3nc2n(Cc2ccco2)c1=N	-3%	nt	-2%	nt	-5%	-5.7%	nt	nt
CC(=O)N1N=C(c2ccc(Cl)cc2)CC1c1ccc([N+](=O)[O-])cc1 (stereo not drawn)	-5%	-31%[46.1 µM]	5%	-17%	nt	nt	26%	3%[46.1 µM]
CCC(C)(C)NC(=O)CN(Cc1ccco1)C(=O)CCC(=O)Nc1nccs1	1%	-12%[46.1 µM]	0%	10%	nt	nt	-2%	-6%[46.1 µM]
C=CCN1C(=S)CC(c2ccccc2)=Nc2ccccc21	-14%	nt	-38%	-10%	nt	nt	-8%	nt
CCCC(=O)NC(Oc1ccc(OC)cc1)C(Cl)(Cl)Cl (stereo not drawn)	0%	?	2%	-20%	nt	nt	18%	18%[46.1 µM]
CCOC(=O)C1CCN(C(=O)c2ccc3c(c2)sc2nc(-c4ccccc4)cn23)CC1	nt	nt	nt	-29%	7%	-1.1%	nt	15%[46.1 µM]
Cc1nc(Cl)c(C(=O)NC(=O)Nc2cccc(C(F)(F)F)c2)c(C)c1[N+](=O)[O-]	9%	?	24%	22µM*	-3%	-17%	3%	?
O=C1N/C(=C/c2ccc(Br)s2)C(=O)N1c1ccccc1	-1%	?	-5%	9%	nt	nt	0%	?
c1ccc(-c2cc(NCCN3CCCCC3)c3ccccc3n2)cc1	-2%	2.8µM*	6%	?	nt	nt	-8%	?
O=C(O)c1cc2nccc(-c3ccc(F)cc3)n2n1	2%	?	3%	7%	nt	nt	-19%	-18%[46.1 µM]
CC/C(O)=N\S(=O)(=O)c1ccc(N=NN(C)C)cc1	25%	21%	10%	-12%	15%	-4.5%	-22%	1%
O=C1N=c2ccc(Br)cc2=C1c1sc(=S)n(NS(=O)(=O)c2ccccc2)c1O	0%	?	-22%	-13%	nt	nt	-17%	-2%[46.1 µM]
Cc1cc2n(n1)C(c1ccc(O)cc1)Nc1ccccc1-2 (stereo not drawn)	2%	-31%	-26%	-3%	-10%	-2.1%	9%	-3%
COc1ccccc1N1CCN(C(=O)c2cn(CC(C)C)c(=O)c3c2c2ccccc2n3C)CC1	nt	-4%[46.1 µM]	nt	2%	?	-7.8%	nt	?
COc1cc2[nH]c(=O)n(CCCCCC(=O)N3CCN(c4ccccc4)CC3)c(=O)c2cc1OC	0%	-25%&-25%	-23%	?	?	-2.6%	-11%	?
O=[N+]([O-])c1ccccc1CCl	-13%	nt	nt	-19%	-6%	-3.0%	-7%	nt
O=C(NC1CCCC1)c1cc(COc2ccc3ncccc3c2)on1	1%	nt	-8%	?	nt	nt	-19%	nt
CC(C)c1ccc(NC(=O)CSc2ncnc3c2sc2ccccc23)cc1	nt	nt	nt	-17%	6%	0.9%	nt	6%[46.1 µM]
Cc1cc(C)c(NC(=O)CCn2c(=O)c3cccn3c3cccnc32)c(C)c1	nt	nt	nt	-5%	12%	0.5%	nt	15%[46.1 µM]
COc1ccc(CCNC(=O)CCC(=O)N2CCN(S(=O)(=O)c3ccc(Cl)cc3)CC2)cc1OC	-5%	10%	0%	?	?	4.6%	63%	26%
COc1ccc(Cc2nc(-c3ccccn3)no2)cc1OC	1%	nt	3%	43%[activator]	nt	nt	7%	nt
CCN1/C(=C\C=C\C2=[N+](CC)c3ccccc3C2(C)C)C(C)(C)c2ccccc21	-33%	0.71µM*	-41%	35µM*	-6%	0.1%	?	0.79µM*
O=C1c2ccccc2C(=O)N1C/C=C/CN1C(=O)c2ccccc2C1=O	4%	-4%	13%	nt	-9%	2.9%	nt	nt
O=C(NC(Cc1ccccc1)C(=O)N1CCC2(CC1)OCCO2)C1CCCCC1 (stereo not drawn)	0%	-2%	6%	31%[activator]	0%	0.7%	1%	6%
NC(=O)CSc1ncc2c(n1)-c1ccccc1N(Cc1ccccc1)S2(=O)=O	nt	nt	nt	-3%	5%	0.9%	nt	17%[46.1 µM]
CCOCCCn1c(=S)[nH]c2cc(C(=O)NCCc3ccc(OC)c(OC)c3)ccc2c1=O	?	nt	-18%	-18%	nt	nt	-12%	nt
CC12CC(c3ccccc3O1)C(C(=O)N1CCOCC1)C(=O)N2 (stereo not drawn)	12%	28%	-1%	nt	-7%	3.0%	7%	-1%
